gsp agonist: qHTS for Agonist of gsp, the Etiologic Mutation Responsible for Fibrous Dysplasia/McCune-Albright Syndrome: qHTS | Potency, µM (titrated, usually from 76.9 µM), for inactives: at the highest dose activation (cAMP increase), actives largely listed as activators | AID 624287, 2012 | gsp mutant cells, cAMP HTRF, 30 min; control for the full effect not named in the record | hit rate 0.13% among 340,000; active = well fitted activation curve with a large enough effect; inconclusive = small, poorly fitted or top-dose-only effect, or another doubt; inactive = no such curve, though single readings can be large or run the other way; cell line not stated here;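 note: phosphodiesterase inhibitor Ro 20-1724 added with compounds to block cAMP breakdown; potency is the fitted concentration of half-maximal effect; nearly all actives have a fitted effect of over 60% in size; about a fifth of the inactives were tested at one dose only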
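Cells in DMEM/10% FBS with G418 were pretreated with compounds in DMSO plus […] (300 uM stock) for 30 min at 37C. cAMP was measured by HTRF (cAMP-d2 plus anti-cAMP antibody-K) after 30 min at room temperature.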
Menin MLL FP FL: qHTS Assay for Inhibitors Targeting the Menin-MLL Interaction in MLL Related Leukemias: Competition With Fluorescein Labeled MLL-derived Peptide; Fluorescence polarization, fluorescein-MLL peptide displacement from menin; 290,000 tested, under 10 active; AID 1766, 2009; FP activity change, % at 61.4 µM; inconclusive = falling polarisation curve, or a change in total fluorescence; inactive = total fluorescence flat and polarisation flat or rising; no compound was filed as active; the % refers to the polarisation; negative = inhibition;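 note: % of control where 0% means no effect; inhibitors lower the polarisation; unlabelled MLL peptide was the positive control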
ClpP mod: qHTS Assay for Activators of ClpP; hit rate 1.9% among 340,000; Potency, µM (top dose mostly 57.5 µM), without a hit: at the highest dose activity change, negative = active; ATP-dependent Clp protease proteolytic subunit (Bacillus subtilis (strain 168)), P80244; purified B. subtilis ClpP, FRET peptide cleavage, 20 min; active = well fitted falling curve with a large enough effect; inconclusive = small, poorly fitted or top-dose-only effect; inactive = no such curve, though single readings can be large or run the other way; note: potency is the fitted concentration of half-maximal effect; the source files actives as falling curves though it sought activators and does not explain the sign; nearly all actives have a fitted effect of over 65% in size; many hits overshoot -100%
Target sequence (P80244 whole entry, looked up): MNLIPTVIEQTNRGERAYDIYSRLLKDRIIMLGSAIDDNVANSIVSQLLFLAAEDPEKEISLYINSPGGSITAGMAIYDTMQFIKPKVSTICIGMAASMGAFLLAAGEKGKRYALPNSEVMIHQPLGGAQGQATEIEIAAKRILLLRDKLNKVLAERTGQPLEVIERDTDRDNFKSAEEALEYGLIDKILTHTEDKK
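Buffer: 100 mM Tris/HCl pH8, 100 mM KCl, 0.05% low protease BSA, 2.5% glycerol, 0.01% Tween-20. ClpP 10 microg/mL final; 20 min RT; delta FRET normalized to ADEP and DMSO controls.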
gsp antag: qHTS for Antagonists of gsp, the Etiologic Mutation Responsible for Fibrous Dysplasia/McCune-Albright Syndrome: qHTS; gsp-mutant cells, cAMP HTRF, 30 min; control for the full effect not named in the record; Potency, µM (doses to about 76.9 µM), for the others: at the highest dose activity change, negative = inhibition, most hits filed as inhibitors; hit rate 0.4% among 340,000; AID 624288, 2012; active = falling curve of any shape with a large fitted effect; inconclusive = falling curve, mostly with a smaller effect; inactive = flat or rising curve; cell line not stated here;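 note: intracellular cAMP measured with PDE inhibitor Ro 20-1724 present during compound exposure; potency is the fitted concentration of half-maximal effect; % is set by controls: 0 for no effect and ±100 for the full control effect; nearly all actives have a fitted effect of over 65% in size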
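Cells in G418 medium, seeded 16-24 h, 37C; buffer exchange to DPBS + 1 mM CaCl2, 0.5 mM MgCl2, 0.05% BSA; cpds in DMSO + […] (300 uM stock), 30 min 37C; HTRF cAMP detection.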
TRPML1 ag: qHTS for Agonists of the Human Mucolipin Transient Receptor Potential 1 (TRPML1); TRPML1-expressing cells, Ca2+ dye fluorescence, FDSS; host cell line not named in the record; reference of the full effect not given here; Mucolipin-1 (Homo sapiens), Q9GZU1; AID 624414, 2012; hit rate 0.12% among 410,000; activation, % (concentration not given with the values); in the data active = activation above about 50%; inconclusive = about 30% to 50%; inactive = below about 30%; note: 0% is about no effect; the text of the record puts the active cut at 80%
Target sequence (Q9GZU1 whole entry, looked up): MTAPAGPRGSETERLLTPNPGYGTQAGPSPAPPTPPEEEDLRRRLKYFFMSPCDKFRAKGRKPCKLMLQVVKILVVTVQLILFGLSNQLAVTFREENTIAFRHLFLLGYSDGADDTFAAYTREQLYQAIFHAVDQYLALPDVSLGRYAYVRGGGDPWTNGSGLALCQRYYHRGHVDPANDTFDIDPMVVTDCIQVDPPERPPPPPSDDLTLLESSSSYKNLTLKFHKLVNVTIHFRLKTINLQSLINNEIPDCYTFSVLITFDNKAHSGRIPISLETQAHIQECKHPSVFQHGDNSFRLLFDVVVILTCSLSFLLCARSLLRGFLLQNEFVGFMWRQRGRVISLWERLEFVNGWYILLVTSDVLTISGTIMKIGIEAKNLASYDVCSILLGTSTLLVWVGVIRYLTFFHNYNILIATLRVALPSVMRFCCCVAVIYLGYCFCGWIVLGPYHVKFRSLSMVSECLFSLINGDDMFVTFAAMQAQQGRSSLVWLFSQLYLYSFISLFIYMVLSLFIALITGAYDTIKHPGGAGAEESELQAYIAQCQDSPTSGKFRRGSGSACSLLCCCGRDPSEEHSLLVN
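Agonist activity was taken from a 110 s kinetic Ca2+ dye read on the FDSS after pinning compounds onto TRPML1-DL cells. The cells were seeded at 1,500/well with Tet inducer, incubated about 16 h, then dye-loaded at room temperature.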
TRPML1 blocker: qHTS for Inhibitors of the Human Mucolipin Transient Receptor Potential 1 (TRPML1). Mucolipin-1 (Homo sapiens), Q9GZU1. TRPML1-inducible cells, Ca2+ dye fluorescence, FDSS; hits give low values; inhibition of EC80 agonist-evoked calcium signal. activity change, negative = inhibition, % (test concentration not listed). hit rate 0.02% among 390,000; in the data active means activity change below about -50%; inconclusive means about -30% to -50%; inactive means above about -30%;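 note: stimulus is agonist 54-4 at its EC80 concentration; % is set by controls: 0 for no effect and ±100 for the full control effect; compound concentration not given in the record; the text of the record puts the active cut at -80%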
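TRPML1-DL cells, Tet-induced overnight (~16 h, 37 °C) at 1,500 cells/well, were loaded with Ca8 no-wash dye plus quencher for 45-90 min at room temperature. Compounds were pinned during FDSS kinetic reading; agonist 54-4 at EC80 (4 uM final) then added.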
* marks the source's active call; other numbers are inactive results; ? = inconclusive; . = no result given; & = joins results of further samples; [ ] = another dose, or the depositor's remark. Rows are unselected; any-hit rate near 2.1%.

SMILES	gsp agonist	Menin MLL FP FL	ClpP mod	gsp antag	TRPML1 ag	TRPML1 blocker
CCOC(=O)c1c(C)[nH]c(NC(=O)NNC(=O)c2ccccc2Cl)c1C	?	.	0.4%	7%	-0.6	25
CN(c1ccccc1)S(=O)(=O)c1cc(Cl)ccc1Cl	13%	-6.2	.	4%	-0.2	32
Cc1ccc(C(=O)N/C(=C\c2cccs2)C(=O)NCCc2c[nH]c3ccccc23)cc1C	-6%	1.3	-4.1%	-16%	2.0	-4
O=C(CCCCn1c(=O)c2ccccc2n(CC(=O)Nc2ccccc2)c1=O)NCc1ccco1	-1%	0.1	-2.6%	1%	3.4	10
Cc1ccc(C)c(Cn2c3ccccc3c3cnn(CC(=O)NCCc4ccccc4)c(=O)c32)c1	.	.	-18%	.	0.7	7
CCN(CC)CCNc1ccc(C)c2sc3ccc(O)cc3c(=O)c12	?	.	-1.2%	-2%	0.2	26
O=C(COC(=O)c1ccccc1F)Nc1cc(S(=O)(=O)N2CCOCC2)ccc1N1CCCC1	12%[15.4 µM]	-1.8	.	.	0.5	-17
NC(=O)CSc1nnc(-c2ccc(S(=O)(=O)N3CCCCC3)cc2)n1-c1ccccc1	-15%	2.5	-27%	0%	7.5	-5
O=C(O)CSc1nnc(COc2ccccc2)n1-c1ccccc1	14%	2.2	2.3%	1%	-0.7	33
CCOc1cccc(CNn2cnnc2)c1OCc1ccccc1Cl	-20%	-0.2	-1.8%	5%	-0.4	-17
COc1cc(C(=O)NCC2CCCN2S(=O)(=O)c2cccs2)cc(OC)c1OC (configuration not stated)	10%[15.4 µM]	.	.	-2%	1.2	3
COc1ccc(Cn2c(CNC(=O)Cc3cccc([N+](=O)[O-])c3)nc3cccnc32)cc1	.	.	1.5%	.	-0.1	4
O=C(Nc1ccc(N2CCOCC2)cc1N1CCOCC1)c1ccccc1	-7%[15.4 µM]	.	-1.6%	-23%	0.7	1
O=S1OC(c2ccccc2)c2cc(Cl)ccc21 (configuration not stated)	.	.	0.2%	7%	-0.3	-7
CC1(C)Cc2c(cnn2-c2ccccc2)C(NC(=O)CCN2CCCCO2)C1 (configuration not stated)	19%	.	-0.8%	6%	-0.3	2

Arranged by the number under TRPML1 blocker (lowest first): three of the compounds above
molecule	gsp agonist	Menin MLL FP FL	TRPML1 blocker
O=S1OC(c2ccccc2)c2cc(Cl)ccc21 (configuration not stated)	.	.	-7
COc1cc(C(=O)NCC2CCCN2S(=O)(=O)c2cccs2)cc(OC)c1OC (configuration not stated)	10%[15.4 µM]	.	3
O=C(CCCCn1c(=O)c2ccccc2n(CC(=O)Nc2ccccc2)c1=O)NCc1ccco1	-1%	0.1	10

The list goes on:
SMILES	gsp agonist	Menin MLL FP FL	ClpP mod	gsp antag	TRPML1 ag	TRPML1 blocker
COc1cc(C2(c3ccc(O)c(OC)c3)C(=O)Nc3c(C)cc(Br)cc32)ccc1O	-3%[15.4 µM]	.	.	3%	3.8	-6
COCCN(C(=O)CSc1nnc(C)n1Cc1ccccc1)c1c(N)n(Cc2ccccc2)c(=O)[nH]c1=O	-18%[15.4 µM]	2.3	.	-8%	-0.2	-18
CC(C)(C)n1nnnc1C(C1CC1)N1CCN(C/C=C/c2ccccc2)CC1 (configuration not stated)	.	.	-1.2%	.	1.3	6
CN(C)c1ccc(C(CNS(=O)(=O)c2ccccc2)N2CCc3ccccc32)cc1 (configuration not stated)	.	.	0.7%	.	0.6	-3
Cc1cc(C)c(S(=O)(=O)Nc2ncn[nH]2)cc1C	1%[15.4 µM]	0.9	-14%	9%	-0.6	5
CCN(C(=O)CSc1ccc(S(=O)(=O)N2CCOCC2)cn1)c1ccccc1	-6%	.	-0.1%	-9%	-1.2	-14
CC1(C)Cc2nc3oc4c(=S)nc[nH]c4c3cc2CO1	?	3.8	-3.0%	21%	0.4	4
O=C(/C=C/c1ccc(-c2cccc([N+](=O)[O-])c2)o1)N1CCOCC1	1%[15.4 µM]	1.1	0.3%	?	0.0	17
CC1CCN(S(=O)(=O)c2cn(C)c(=O)n(C)c2=O)CC1	-78%[inhibitor]	2.4	-0.1%	9%	-0.5	-9
CCOc1ccc(CC(=O)OCN2C(=O)c3ccccc3C2=O)cc1	-1%	0.8	0.5%	-2%	-0.7	12
Cc1cc(OCC(=O)NNC(=O)c2ccncc2)cc(C)c1Cl	12%	.	0.2%	3%	0.0	11
Cc1ccc(S(=O)(=O)NNC(=O)c2cc([N+](=O)[O-])c(C)c([N+](=O)[O-])c2)cc1	12%[15.4 µM]	.	-1.9%	-6%	-0.6	-4
Cc1ccc(CNc2ncc(-c3ccc4c(c3)OCO4)n2C)cc1	9%	-0.9	?	10%	-0.4	19
O=C(CNC(=O)OCc1ccccc1)Nc1ccc(F)cc1	5%	.	0.4%	6%	-0.2	-5
COc1ccc(N(CC(=O)Nc2c(C)cccc2C)S(=O)(=O)c2ccccc2[N+](=O)[O-])c(OC)c1	17%[15.4 µM]	0.3	.	-7%	0.9	23
CC(=O)NCCc1ccc(O)cc1	10%	-5.0	-10%	6%	-0.5	3
Cc1cc(=O)[nH]c(N/N=C/c2c(C)oc3ccccc23)n1	25%	-4.7	.	-19%	-0.4	2
O=C1COc2ccc(OCc3ccc(F)cc3)cc21	-18%	-1.5	-2.7%	4%	-0.7	-18
CCCCCCC(c1c(C)n(C)n(-c2ccccc2)c1=O)c1c(C)n(C)n(-c2ccccc2)c1=O	-8%	2.2	-1.3%	-39%	0.4	1
O=[N+]([O-])c1cccnc1N1CCC(c2cc(-c3ccc(Cl)cc3Cl)n[nH]2)CC1	-4%	1.4	-3.2%	-1%	0.7	-12
CS(=O)(=O)N(Cc1ccc(C(=O)N2CCc3ccccc3C2)cc1)c1ccccc1	-1%	0.0	.	-14%	-0.3	-15
COc1ccc(CNC(=O)Nc2cn(CC(C)C)c(=O)c3ccccc23)c(OC)c1	.	.	-7.3%	.	-1.1	-6
COc1ccc(OC)c(CNCc2c(C(=O)O)n(Cc3cccc(F)c3)c3cc(OC)ccc23)c1	.	.	-4.8%	.	2.2	-8
CCCCC(=O)N(C)c1c(C)nc2ccc(C(=O)N(C)Cc3ccco3)cn12	.	.	-2.9%	.	0.8	3
Cc1ccc(NC(=O)CC2S/C(=N/N=C3\CCCc4ccccc43)NC2=O)cc1 (configuration not stated)	12%[15.4 µM]	7.2	.	-10%	0.2	-27
O=C1NC(c2cccc([N+](=O)[O-])c2)=CCN1c1ccccc1O	-22%	3.4&0.9&10	0.7%	-1%	0.8	-1
CC(Oc1ccc(Cl)cc1Cl)C(=O)NCc1ccncc1 (configuration not stated)	-7%	0.0	-5.4%	-11%	0.2	2
CCOC(=O)Cc1cnc(NC(=O)NC(C(=O)OCC)(c2ccccc2)C(F)(F)F)s1 (configuration not stated)	-42%[inhibitor]	-2.1	-5.7%	-12%	3.1	-19
Cc1ccc(OCCNC(=O)CCNS(=O)(=O)c2ccc(Br)cc2)cc1	23%	.	-11%	4%	0.3	30
COC(=O)NC1c2ccccc2Oc2ccc(C)cc21 (configuration not stated)	3%	4.7	-5.2%	13%	0.5	-2
O=C(NCc1ccccc1)C(c1ccncc1)N(C(=O)c1csnn1)C1CC1 (configuration not stated)	16%	0.8	-1.0%	2%	-0.3	-8
OCCC1CN(Cc2cccc(-n3cccn3)c2)CCN1Cc1ccccc1 (configuration not stated)	-7%[15.4 µM]	-0.1	.	8%	-0.5	56
CCCCCC(=O)N1C[C@@H](n2cc(C3CC3)nn2)[C@H](O)C[C@@H]1c1ccc(OC)cc1	-22%	.	0.4%	.	-0.1	3
CC[N+]1=CN(c2ccccc2)C(C)=CC1(C)C	18%	1.9	-1.4%	-3%	0.1	-6
COC(=O)C1=C(C(=O)OC)[C@@H]2N(C)c3ccccc3[C@@]23C[C@@H](CO)N(C(=O)c2cccs2)C3=N1	-13%	.	-1.8%	-12%	1.1	28
COc1ccccc1CN1C(=O)c2cccc3cccc(c23)C1=O	13%	4.7	-7.5%	11%	0.1	-5
COC(=O)c1ccc(Oc2ccc(C(C)(C)C)cc2)c([N+](=O)[O-])c1	-25%	0.1	1.1%	-14%	2.1	-16
Cn1c(CCCNC(=O)c2cccs2)nc2ccccc21	-3%	0.9	-2.3%	4%	-0.2	-2
Fc1ccc2c(-c3cccc(C(F)(F)F)c3)c(-c3ccccc3)ncc2c1	.	.	?	-15%	1.9	32
CCN(CC)c1cc(C)c2cc(NC(=O)c3ccccc3F)ccc2n1	30%	-1.4	-9.5%	-6%	3.8	9
O=C(CC(c1ccccc1)c1cc(Br)ccc1O)NCCN1CCOCC1 (configuration not stated)	-1%	-0.6	0.6%	-10%	0.0	-6
Cc1cc(C)c2nc(SCCc3ccccc3)nc(C)c2c1	0%	4.2	?	-3%	0.6	17
CC1(C)OC(=O)C2=C(CC(CCc3ccccc3)OC2c2ccccc2)O1 (configuration not stated)	-38%[inhibitor]	.	0.9%	.	2.3	-2
COc1ccc(N2C(=O)CC(Sc3nc(C)cc(C)n3)C2=O)cc1OC (configuration not stated)	8%	0.8	-0.5%	1%	0.2	-5
CN(CCC#N)c1ncnc2scc(-c3ccccc3)c12	17%	0.4	-4.9%	-12%	-0.1	-9
CCOc1c(Cl)cc(C(=O)NCCN2CCCCC2)cc1Cl	?	6.0	1.0%	8%	0.3	-6
CCn1c(CC(=O)Nc2ccccc2C)nnc1SCC(=O)NC1CCCC1	-12%	0.9	.	3%	2.7	-15
CCC(C(=O)OC)n1cnc2scc(-c3ccc(C)cc3)c2c1=O (configuration not stated)	?	2.9	0.2%	-2%	-0.1	-18
CC(=O)c1cccc(NC(=O)N2CCC(C(=O)c3ccc(F)cc3)CC2)c1	-33%	?	.	-3%	0.0	-8
COc1cc(C(=O)O)nc(OC)n1	-2%[15.4 µM]	0.6	.	9%	-0.5	9
O=C1NC(=O)C(Cc2ccccc2)(c2cccnc2)N1 (configuration not stated)	19%	4.1	.	-12%	0.1	1
CN1CCN(C(=O)C[C@H]2C[C@H]3c4cc(NC(=O)NC5CCCCC5)ccc4O[C@H]3[C@@H](CO)O2)CC1	?	.	-1.7%	.	0.8	-9
CCOC(=O)C(=O)Nc1ccc(S(=O)(=O)Nc2ncccn2)cc1	0%	-0.4	-1.8%	8%	1.1	-8
CCC1CCc2sc(C(=O)NC3CCN(Cc4ccccc4)CC3)cc2C1 (configuration not stated)	-39%[inhibitor]	.	-2.1%	3%	1.8	2
